gsp ag: agonists of gsp mutant (McCune-Albright syndrome); gsp mutant cells, cAMP HTRF, 30 min; control for the full effect not named in the record; Potency, µM (highest dose often 76.9 µM), for the others: at the top dose activation (cAMP increase), most hits filed as activators; 0.13% of 340,000 active; AID 624287; active = well fitted activation curve with a large enough effect; inconclusive = small, poorly fitted or top-dose-only effect, or another doubt; inactive = no such curve, though single readings can be large or run the other way; cell line not stated here;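 note: phosphodiesterase inhibitor Ro 20-1724 added with compounds to block cAMP breakdown; potency is the fitted concentration of half-maximal effect; nearly all actives have a fitted effect of over 60% in size; about a fifth of the inactives were tested at one dose only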
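Cells stably selected in G418 were plated at 2000/well, grown 16-24 hr, then given compounds in DMSO with the PDE inhibitor […] (300 uM solution added) for 30 min at 37C; cAMP was read by HTRF.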
TRPV1 PAM: human TRPV1 potentiation | TRPV1-expressing cells, Fluo-8 calcium influx, capsaicin EC20 potentiation; host cell line not named in the record; control for the full effect not named in the record | potentiation, % at 8.33 µM | 0.02% of 320,000 active; active means potentiation above 80%; inconclusive means 30% to 80%; inactive means below 30%; note: 0% is about no effect
Target sequence (Q8NER1 whole entry, looked up): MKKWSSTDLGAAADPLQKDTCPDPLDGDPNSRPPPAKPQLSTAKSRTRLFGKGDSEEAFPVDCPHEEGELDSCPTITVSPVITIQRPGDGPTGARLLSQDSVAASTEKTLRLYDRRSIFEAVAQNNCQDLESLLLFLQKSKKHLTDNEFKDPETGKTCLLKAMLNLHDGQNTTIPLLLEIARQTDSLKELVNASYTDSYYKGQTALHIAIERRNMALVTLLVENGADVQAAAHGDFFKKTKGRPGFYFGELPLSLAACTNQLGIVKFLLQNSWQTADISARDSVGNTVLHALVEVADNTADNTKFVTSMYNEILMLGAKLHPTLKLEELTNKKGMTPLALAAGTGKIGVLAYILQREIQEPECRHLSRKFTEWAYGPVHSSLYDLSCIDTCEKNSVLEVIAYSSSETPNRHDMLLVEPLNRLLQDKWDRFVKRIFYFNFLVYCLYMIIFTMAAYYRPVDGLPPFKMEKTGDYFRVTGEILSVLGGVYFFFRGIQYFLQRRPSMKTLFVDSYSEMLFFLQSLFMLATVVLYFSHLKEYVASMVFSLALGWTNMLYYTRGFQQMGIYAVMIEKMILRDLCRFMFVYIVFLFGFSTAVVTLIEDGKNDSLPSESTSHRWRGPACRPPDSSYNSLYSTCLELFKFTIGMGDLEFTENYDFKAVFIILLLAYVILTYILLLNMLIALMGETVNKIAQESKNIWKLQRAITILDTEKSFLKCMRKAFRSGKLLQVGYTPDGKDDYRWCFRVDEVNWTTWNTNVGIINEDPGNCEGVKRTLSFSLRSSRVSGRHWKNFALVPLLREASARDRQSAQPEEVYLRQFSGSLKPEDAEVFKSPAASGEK
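Cells expressing TRPV1 were dye-loaded with Fluo-8 and read kinetically: 10 s baseline, 3 min after compound (agonist portion), then 2 min after EC20 capsaicin (allosteric enhancer portion). Calcium-bound dye fluorescence at 480/520 nm.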
Sfp inh: blocks B. subtilis Sfp PPTase activity | 3.5% of 310,000 active | Biochemical Sfp PPTase activity, qHTS | Potency, µM, for inactives: max response, negative = inhibition, most hits filed as inhibitors | Q9F4F7; active = well fitted inhibition curve with a large enough effect; inconclusive = small, poorly fitted or top-dose-only effect, or another doubt; inactive = no such curve, though single readings can be large or run the other way;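 note: the enzyme is Sfp with the accession as filed and its product quenches rhodamine fluorescence; potency is the fitted concentration of half-maximal effect; 0% = enzyme reaction without inhibitor and -100% = no enzyme wells; top concentration of the series not given in the record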
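Reaction rates are the 30-min fluorescence difference (ex 525, em 598 nm) in wells containing 15 nM Sfp, 5 uM rhodamine-CoA and 12.5 uM BHQ-2-YbbR at pH 7.6 with 10 mM MgCl2.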
ClpP mod: qHTS Assay for Activators of ClpP; ATP-dependent Clp protease proteolytic subunit (Bacillus subtilis (strain 168)), P80244; purified B. subtilis ClpP, FRET peptide cleavage, 20 min; Potency, µM (highest dose often 57.5 µM), for inactives: at the top dose activity change, negative = active; 1.9% of 340,000 active; AID 651965, 2013; active = well fitted falling curve with a large enough effect; inconclusive = small, poorly fitted or top-dose-only effect; inactive = no such curve, though single readings can be large or run the other way; note: potency is the fitted concentration of half-maximal effect; the source files actives as falling curves though it sought activators and does not explain the sign; nearly all actives have a fitted effect of over 65% in size; many hits overshoot -100%
Target sequence (P80244 whole entry, looked up): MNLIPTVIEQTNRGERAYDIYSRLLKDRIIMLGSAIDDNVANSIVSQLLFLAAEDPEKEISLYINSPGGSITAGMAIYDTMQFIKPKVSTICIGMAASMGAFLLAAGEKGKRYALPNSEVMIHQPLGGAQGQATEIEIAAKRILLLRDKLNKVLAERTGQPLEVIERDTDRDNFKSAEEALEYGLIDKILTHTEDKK
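Buffer: 100 mM Tris/HCl pH8, 100 mM KCl, 0.05% low protease BSA, 2.5% glycerol, 0.01% Tween-20. ClpP 10 microg/mL final; 20 min RT; delta FRET normalized to ADEP and DMSO controls.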
D2 potentiator: positive allosteric modulators of human D2 dopamine receptor | potentiation, % (concentration not given with the values) | DiscoveRx D2 beta-arrestin cells, luminescence, 90 min; 100% = 57 uM dopamine signal | 0.23% of 360,000 active; active = potentiation of 50% or more; inconclusive = 30% to 50%; inactive = 30% or less;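 note: compound concentration not given in the record; tested on top of an EC20 dose of dopamine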
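D2 cells co-treated with compound plus 50 nM dopamine (EC20) for 90 min at 37 deg C to detect potentiation. Beta-arrestin recruitment was read as enzyme-fragment luminescence after 1 h at ambient temperature. Full response was set by 57 uM dopamine.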
gsp antag: antagonists of gsp mutant (McCune-Albright syndrome); gsp-mutant cells, cAMP HTRF, 30 min; control for the full effect not named in the record; Potency, µM (doses to about 76.9 µM), without a hit: at the top dose activity change, negative = inhibition, hits mostly inhibitors; 0.4% of 340,000 active; AID 624288; active = falling curve of any shape with a large fitted effect; inconclusive = falling curve, mostly with a smaller effect; inactive = flat or rising curve; cell line not stated here;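 note: intracellular cAMP measured with PDE inhibitor Ro 20-1724 present during compound exposure; potency is the fitted concentration of half-maximal effect; % is set by controls: 0 for no effect and ±100 for the full control effect; nearly all actives have a fitted effect of over 65% in size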
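HTRF cAMP measurement after 30 min RT detection following 30 min, 37C compound treatment alongside […] (added as 300 uM solution) in G418-selected cells seeded at 2000/well and grown 16–24 h.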
Menin-MLL FL inh: inhibitors of human menin-MLL interaction, wild-type MLL peptide | Fluorescence polarization, fluorescein-MLL peptide displacement from menin | FP activity change, % at 61.4 µM | 290,000 tested, under 10 active; inconclusive = falling polarisation curve, or a change in total fluorescence; inactive = total fluorescence flat and polarisation flat or rising; no compound was filed as active; the % refers to the polarisation; negative = inhibition;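 note: % of control where 0% means no effect; inhibitors lower the polarisation; unlabelled MLL peptide was the positive control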
* hit, by the source's call; ? = inconclusive; . = no result given; & = joins results of further samples; [ ] = dose if it differs, or a comment.

compound	gsp ag	TRPV1 PAM	Sfp inh	ClpP mod	D2 potentiator	gsp antag	Menin-MLL FL inh
CCOC(=O)/C(=C/c1c[nH]c2ccccc12)NC(C)=O	-3%	.	5%	-2.1%	3	5%	-0.6
Fc1ccc(NC(=S)NCc2ccccc2Cl)cc1	-47%[inhibitor]	-15	4%	-1.5%	-5	7%	-2.3
COc1cccc(OC)c1C(=O)Nc1nc2ccc([N+](=O)[O-])cc2s1	-1%[15.4 µM]	6	15%	.	-6	?	-2.0
C#CCn1c(=NC(=O)c2ccc(Br)s2)sc2cccc(OC)c21	?	0	?	4.5%	-1	-4%	4.5
Cc1nn(-c2ccc(C(F)(F)F)cn2)c(C)c1Oc1ccccc1O	?	14	0%	-2.1%	7	-7%	-2.0
c1ccc(-c2cc(-c3ccc(N4CCOCC4)cc3)nc3ccccc23)cc1	10%[15.4 µM]	-6	-19%	-19%	-13	-3%	12
COc1cc(/C=C/CN2CCN(CCC(C)C)C(CCO)C2)ccc1O (stereo not given)	14%	15	-1%	-12%	-22	7%	1.5
Cc1ccc(S(=O)(=O)N(C)C)cc1NC(=O)CSc1ncn[nH]1	13%	4	19%	1.8%	-8	3%	-3.0
CC(CO)Nc1nc(SCc2ccccc2)nc2sc3c(c12)CCC3 (stereo not given)	5%	3	-1%	-1.1%	-10	-18%	4.3
COc1ccc(CCNC(=O)c2cc([N+](=O)[O-])ccc2N2CCOCC2)cc1	-25%	-6	.	1.5%	-1	-2%	.
Cc1ccccc1C(OCC(O)CN1CCC(C(N)=O)CC1)c1ccccc1 (stereo not given)	13%[15.4 µM]	-42	8%	.	-1	.	0.0
CC(C)[C@H](NS(=O)(=O)/C=C/c1ccccc1)C(=O)OCC(=O)NC(N)=O	?	3	-4%	-0.5%	-6	3%	4.9
Cc1ccc(-n2cccc2/C=C2/C(=N)N3C(=NC2=O)SN=C3S(C)(=O)=O)cc1	-4%[15.4 µM]	5	-9%	.	-5	-16%	?
CC(=O)Nc1ccc(OCC=C(Cl)Cl)cc1	6%	28	6%	-0.4%	-7	2%	-1.7
Cc1cccc(C)c1N(CC(=O)Nc1cc(Cl)ccc1Oc1ccccc1)S(C)(=O)=O	-3%	5	7%	0.9%	6	-18%	-1.0
CCC(C)NC(=O)CN1c2cccc3cccc(c23)S1(=O)=O (stereo not given)	19%	14	11%	?	2	8%	9.4
N#CCCN(C(=O)COC(=O)COc1ccc(Cl)cc1)c1ccccc1	17%[15.4 µM]	6	-6%	.	-5	1%	-3.5
CCOC(=O)c1sc(=S)n(C)c1NC(=O)c1ccc(F)cc1	13%	-4	25µM*	0.6%	-2	-11%	2.5
CCCCOc1ccc(OCCNS(=O)(=O)N(C)C)cc1	-31%[inhibitor]	-8	10%	2.9%	9	-9%	1.3
CC(=O)Nc1ccccc1-c1nc2ccccc2nc1OCC(=O)c1ccc(Br)cc1	?	23	-15%	-2.1%	-11	7%	-0.2
Cc1cccc(Cl)c1NC(=O)N1CCCN(c2nc3ccc(Cl)cc3s2)CC1	-2%	4	9%	0.2%	-7	-22%	-0.6
CCN(CC)CCNC(=O)Cc1nn(CC)c(=O)c2ccccc12	-44%[inhibitor]	5	10%	-2.4%	-7	2%	1.7
CC(=O)N1CCN(S(=O)(=O)c2cccc(C(=O)Nc3ccc(F)c(F)c3)c2)CC1	-19%	1	13%	.	-3	2%	-3.9
COC(=S)Nc1cccc(C(F)(F)F)c1	-6%[15.4 µM]	4	8%	.	-1	7%	5.3
Cc1ccc(S(=O)(=O)ON=C2CCN(S(=O)(=O)c3ccccc3)CC2)cc1	-3%	1	?	-2.0%	0	10%	3.2
CC1CC(C)(C)NC(=S)S1 (stereo not given)	?	9	50µM*	-1.3%	15	0%	2.1
CCOC(=O)C1=C(c2ccccc2)c2ccccc2OC1C(=O)OCC (stereo not given)	.	.	-10%	0.2%	.	-9%	3.7[94.6 µM]
CC(=O)c1ccc(OCCCC(=O)OCC(=O)N2CCN(S(=O)(=O)c3ccc(C)cc3C)CC2)cc1	-33%[inhibitor]	.	.	-3.1%	-3	-9%	.
COc1ccc(S(=O)(=O)n2nc(OC(=O)c3cccs3)cc2NC(=O)c2cccs2)cc1	.	19	-14%	-8.6%	-12	-5%	-1.3
O=C(NCC(=O)N(c1ccccc1)C(C(=O)NC1CCCC1)c1ccncc1)c1ccco1 (stereo not given)	15%[15.4 µM]	.	.	-7.1%	-7	-2%	.

Next part; it opens with the 2 that closed the last part.
compound	gsp ag	TRPV1 PAM	Sfp inh	ClpP mod	D2 potentiator	gsp antag	Menin-MLL FL inh
COc1ccc(S(=O)(=O)n2nc(OC(=O)c3cccs3)cc2NC(=O)c2cccs2)cc1	.	19	-14%	-8.6%	-12	-5%	-1.3
O=C(NCC(=O)N(c1ccccc1)C(C(=O)NC1CCCC1)c1ccncc1)c1ccco1 (stereo not given)	15%[15.4 µM]	.	.	-7.1%	-7	-2%	.
O=C(O)[C@H]1CC=C[C@H]2CCN(Cc3ccc(Cl)c(Cl)c3)C(=O)[C@@H]12	.	.	8%	-5.7%	-1	0%	3.1[94.6 µM]
CCOc1cc(N2CCOCC2)c(OCC)cc1NC(=O)CN1C(=O)C2C3C=CC(C3)C2C1=O (stereo not given)	?	10	15%	1.2%	-7	-9%	-3.8
Cc1ccccc1C(=O)c1cccn1CC(=O)NCc1ccco1	-21%	.	11%	-0.3%	-1	1%	8.3
CSc1cccc(NC(=O)CCNS(=O)(=O)c2ccc3[nH]c(=O)oc3c2)c1	?	0	5%	-0.9%	-21	7%	.
O=C(CCCn1c(=S)[nH]c2ccsc2c1=O)NC1CCCCC1	?	-1	-15%	1.2%	-7	-12%	.
CN1CCN(C(=O)c2ccc(CN(c3ccccc3)S(=O)(=O)c3ccccc3)cc2)CC1	?	1	7%	2.8%	-16	2%	-2.5
O=C(N/N=C/c1cccn1-c1cccc(C(=O)O)c1)Nc1ccccc1	12%	?	-24%	0.3%	22	?	.
CC(=O)c1sc2nc(-c3ccccc3)cc(C)c2c1N	-27%	23	-2%	.	3	-24%	0.2
COc1ccc(N2C(=O)CSC23C(=O)N2CCCc4cccc3c42)cc1 (stereo not given)	0%	-2	2%	1.3%	-6	-3%	1.2
CN1CCN(Cc2c(O)ccc3c2oc(=O)c2ccccc23)CC1	?	-2	-5%	-2.6%	-31	12%	-0.9
CCOc1cc2[nH]c(=O)n(Cc3ccccc3)c(=O)c2cc1OCC	-17%	0	13%	13µM*	-2	-3%	1.0
Cc1ccc(S(=O)(=O)N(C)/N=C/c2ccc(N(C)C)cc2)cc1	16%	?	1%	.	-5	-2%	-2.9
c1ccc2cc(N3CCCCC3)ccc2c1	?	.	.	.	-5	6%	.
S=C(N/N=C/c1ccc2ncccc2c1)Nc1ccccc1	16%	2	11%	1.2%	9	-3%	-0.1
Cc1cc(C)c(S(=O)(=O)N(C)CC(=O)NCc2ccncc2)c(C)c1	-27%[15.4 µM]	-10	11%	.	-4	1%	0.2
S=C1NCN(C2CCCCC2)CN1CCc1ccccc1	7%	12	13%	.	-4	3%	-1.2
CC(C)C[C@H](N)C(=O)N1CCC(C(=O)N[C@H](C(=O)NC(C)c2ccccc2)C(C)C)CC1 (stereo not given in full)	.	5	-2%	-3.3%	-21	-3%	-6.6
Cc1ccc(NC(=O)Cc2nnc(SCC(=O)Nc3nncs3)n2C)cc1	22%[15.4 µM]	5	9%	.	-3	-24%	-12
Fc1ccc2cnc(CCO[C@H]3CCCCO3)cc2c1	-38%	.	.	-4.2%	-2	2%	.
CC(=O)N1CCCc2cc(S(=O)(=O)N(C)CC(=O)Nc3ccccc3)ccc21	13%	.	.	0.0%	-1	.	.
CC1CC1C(=O)Nc1nc(-c2ccccn2)cs1 (stereo not given)	-12%	-22	25µM*	65%	17	-6%	-1.9
Cc1cccc(C(=O)NCC(=O)NC2CCC(C)CC2)c1 (stereo not given)	18%[15.4 µM]	2	.	0.9%	-38	-3%	.
O=C(O)/C=C\C(=O)NCc1ccccc1	-27%	.	2%	-0.1%	22	1%	0.4
O=C1C2CC(O)CN2C(=O)N1c1ccccc1 (stereo not given)	-1%[15.4 µM]	7	9%	.	-5	13%	38[activator]
COc1ccc(CCNC(=O)C2CCCN(c3ncccn3)C2)cc1 (stereo not given)	-56%[inhibitor]	0	19%	-2.1%	-6	13%	-2.0
CCOc1ccccc1N1CC(C(=O)Nc2cc(Cl)ccc2-n2cncn2)CC1=O (stereo not given)	-2%	2	.	1.0%	-8	-2%	.
Cc1ccc2c(c1)CC(C)N2S(=O)(=O)c1nnc(NC(=O)CC(C)C)s1 (stereo not given)	26%	1	15%	3.1%&0.6%	-1	-2%	.
O=C(c1ccco1)N1CCCC(c2nc3c(nnn3Cc3cccc(Cl)c3)c(=O)[nH]2)C1 (stereo not given)	0%	18	8%	.	8	-3%	4.7
CC12CCC(C[N+](C)(C)C1)C2(C)C (stereo not given)	?	-8	-6%	-0.3%	-8	7%	0.3
CCCCCn1c(SCCC(C)C)nc2c1c(=O)[nH]c(=O)n2C	-2%	-19	28µM*	1.0%	19	4%	1.3
N#CCN=C(c1ccccc1)c1ccccc1	-19%	3	.	-1.8%	-8	1%	.
CN1CC[C@H](CN2c3ccccc3Sc3ccccc32)C1	.	.	4%	-3.8%	.	.	0.0
COCCN(C(=O)c1ccc(N2CCCC2=O)cc1)c1c(N)n(Cc2ccccc2)c(=O)[nH]c1=O	14%	9	.	-4.0%	-5	14%	.
CSCC[C@H](NC(=O)c1ccc2ccccc2c1)C(=O)N1CCC2(CC1)NCCc1[nH]cnc12	-23%	2	-20%	-5.9%	-21	-2%	.
CCOc1cc(C(=O)Nc2cccc(OCC(=O)N3CCOCC3)c2)cc(OCC)c1OCC	12%	-2	2%	.	0	-4%	0.6
CCc1nnc(NC(=O)c2ccc(Cl)c(S(=O)(=O)N3CCc4ccccc43)c2)s1	-3%	9	-1%	-4.0%	-2	-18%	3.5

Screening data: PubChem BioAssay, National Center for Advancing Translational Sciences (NCATS)
